LANA-H2A inh: blocks KSHV LANA binding to histone H2A/H2B; Q9QR71; cell-free LANA-H2A/H2B peptide, fluorescence polarization; inhibition, % (test concentration not listed); 320,000 tested, 0.6% active; in the data active = inhibition mostly above about 10%, no sharp cut-off; inactive = mostly below about 6.7%;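 note: stock transfer was 7.5 nL into about 10 µL; 0% = median of vehicle wells and 100% = median of positive control wells; one replicate is shown; the record names a cut of 25% in any replicate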
Target sequence (Q9QR71 whole entry, looked up): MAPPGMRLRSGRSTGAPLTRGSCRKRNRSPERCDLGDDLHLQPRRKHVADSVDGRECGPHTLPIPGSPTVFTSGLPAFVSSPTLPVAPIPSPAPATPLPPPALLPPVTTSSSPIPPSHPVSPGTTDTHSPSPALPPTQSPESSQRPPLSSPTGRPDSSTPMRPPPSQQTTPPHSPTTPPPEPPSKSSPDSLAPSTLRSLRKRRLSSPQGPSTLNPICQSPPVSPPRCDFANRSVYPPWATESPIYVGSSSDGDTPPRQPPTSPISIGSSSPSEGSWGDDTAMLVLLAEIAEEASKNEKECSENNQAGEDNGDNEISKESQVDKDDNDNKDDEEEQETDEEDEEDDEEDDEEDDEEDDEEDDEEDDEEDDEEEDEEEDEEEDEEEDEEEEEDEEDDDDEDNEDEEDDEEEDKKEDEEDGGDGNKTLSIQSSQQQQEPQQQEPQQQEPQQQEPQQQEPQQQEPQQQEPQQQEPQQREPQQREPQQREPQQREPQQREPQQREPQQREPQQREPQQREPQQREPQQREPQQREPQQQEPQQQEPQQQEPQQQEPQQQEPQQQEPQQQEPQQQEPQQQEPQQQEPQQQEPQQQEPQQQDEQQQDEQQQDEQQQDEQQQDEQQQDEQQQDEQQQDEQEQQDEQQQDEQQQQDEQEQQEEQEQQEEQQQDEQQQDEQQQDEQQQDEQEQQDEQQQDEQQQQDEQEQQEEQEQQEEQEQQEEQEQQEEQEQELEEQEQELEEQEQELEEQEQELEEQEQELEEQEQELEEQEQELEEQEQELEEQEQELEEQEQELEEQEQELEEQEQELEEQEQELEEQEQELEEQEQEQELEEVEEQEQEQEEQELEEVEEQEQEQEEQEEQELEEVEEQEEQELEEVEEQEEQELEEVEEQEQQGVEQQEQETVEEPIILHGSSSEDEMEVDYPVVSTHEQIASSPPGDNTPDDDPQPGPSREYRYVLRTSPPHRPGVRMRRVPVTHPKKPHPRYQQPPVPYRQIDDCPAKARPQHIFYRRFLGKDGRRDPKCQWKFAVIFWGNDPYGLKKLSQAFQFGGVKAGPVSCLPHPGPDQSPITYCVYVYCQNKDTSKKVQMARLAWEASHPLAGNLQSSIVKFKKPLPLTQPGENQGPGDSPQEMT
RanGTP-Imp inh: disruptors of Ran-importin-beta complex formation – biochemical, FRET, CFP-Ran, YFP-importin-beta, homogeneous, primary screen; 300,000 tested, 1.1% active; inhibition, % (test concentration not listed); cell-free CFP-Ran/YFP-importin-beta FRET ratio; AID 2216;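 active = most replicates above 15%; inconclusive = exactly half above 15%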;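 note: 0% = DMSO wells and 100% = Ran loaded with GDP instead of GTP; wells of about 40 µL received 100 nL stock; the first replicate is given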
Vif TR-FRET: inhibitors of Vif binding to APOBEC3G peptide, primary screen, biochemical, TR-FRET, GST-Vif 1-94, biotin-A3G peptide, dose response retest (AID 1117319). TR-FRET GST-Vif / biotin-A3G peptide binding; higher % means a stronger effect; test concentration not given here; strong numbers were not always called active. one-dose inhibition, %; IC50 in µM for titrated hits. 260,000 tested, 0.57% active;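 active = above the screen mean plus three standard deviations and confirmed in dose response; inconclusive = results disagree or hit not tested in dose response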;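 note: Vif residues 1-94 fused to GST binding biotinylated APOBEC3G peptide 110-148; 0% = full assay without inhibitor and 100% = GST in place of GST-Vif; retest series ran down from 100 µM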
Bfl-1 A1 inh: inhibitors of the anti-apoptotic protein A1, read as caspase activation | MEF A1-2A-BIM cells, Caspase-Glo 3/7 luminescence, 3 h; percent of clofoctol response, vehicle zero | caspase activation, % (test concentration not listed) | 330,000 tested, 0.066% active;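 active = over half of replicate activation scores above 10%, or exactly half above 10 with the replicate mean above 10; inconclusive = replicate mean below 10 yet half the replicates above 10; inactive = over half of replicates below 10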;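 note: wells of about 30 µL received 50 nL stock; many hits fall short of the cut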
AF4-AF9 inh: blocks AF4 peptide binding to human AF9 | AlphaScreen, biotin-AF4 peptide binding to FLAG-AF9 | P42568 | AID 651704 | inhibition, % at 10 µM | 350,000 tested, 0.47% active;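 active = every replicate reaching a set inhibition limit, whatever the replicate mean, cut at about 25% in these data; inconclusive = mean inhibition reaches that limit but some replicates miss it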;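 note: 0% = plate neutral control median and 100% = total signal loss; the record names both 10 and 1 µM as test concentration; the first replicate is given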
Calb FLC: affects C. albicans growth with fluconazole; C. albicans CaCi-2 (fluconazole-resistant clinical isolate) + fluconazole, Alamar Blue growth, 48 h; growth inhibition, % (concentration not given with the values); 300,000 tested, 0.57% active;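 active = most replicates above 75%; inconclusive = exactly half above 75%; inactive = most below 75%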;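 note: all wells also contain fluconazole at 8 µg/ml as a sub-toxic cotreatment; 0% = median of DMSO wells and 100% = median of geldanamycin control wells; wells of about 8 µL received 7.5 nL stock; the first replicate is given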
Beta apoptosis: beta cell apoptosis inhibition. INS-1E cytokine-induced death, ATP luminescence, 48 h; percent of positive-control rescue, neutral wells zero. protection from apoptosis, % (concentration not given with the values). 300,000 tested, 0.8% active;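 active = all replicates at 75% or more, or half of them and the mean; inconclusive = half reach 75% but not the mean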;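 note: 0% = cytokine-treated negative control wells and 100% = positive control rescue; higher means more ATP so stronger rescue from cytokine killing; wells of about 40 µL received 100 nL stock; the first replicate is given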
T cruzi repl: T. cruzi replication inhibition; T. cruzi beta-gal in NIH3T3, luminescence, 90 h; inhibition, % (test concentration not listed); 300,000 tested, 1.4% active; AID 1885;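 active = mean inhibition across valid replicates above about 55%, limit read from the data; inconclusive = mean below that limit but half or more replicates reach it; inactive = mean below it, under half of replicates reach it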;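 note: signal also drops with host cell toxicity which is not excluded here; 0% = plate median of DMSO wells and 100% = zero luminescence signal; higher percent means less beta-gal luminescence so fewer parasites; stock transfer was 50 nL into about 50 µL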
* = called active by the depositor; i = inactive; ? = inconclusive; . = no result given; & = joins results of further samples. Compounds were not picked by outcome; 4.3% or so of the library scored in one or more.

SMILES	LANA-H2A inh	RanGTP-Imp inh	Vif TR-FRET	Bfl-1 A1 inh	AF4-AF9 inh	Calb FLC	Beta apoptosis	T cruzi repl
COc1ccc(NC(=O)C23CC4CC(C2)CC(c2ccc(C)cc2)(C4)C3)cc1	0.7	0.8	.	0.9	-4.9	-4	4	26
CC(/C=C/c1ccco1)=N\NC(=O)c1cc(C)[nH]n1	1.8	-3.3	?	-0.8	.	1	-3	4
CCOC(=O)C1C(=O)OC2(CCCC2)C1C(=O)OCC (stereo not given)	2.7	.	0%	1.0	.	-5	-3	-9
CCCCn1c(N)c(-c2nc3ccccc3s2)c2c([N+](=O)[O-])nn(CC)c(=O)c21	2.1	-1.7	10%	-0.3	.	23	5	4
COC(=O)c1c(C)nsc1NC(=O)Oc1ccccc1	4.0	-1.3	8%	-0.8	-0.5	?	-6	-6
COc1ccc(NC(=O)CCc2nc(-c3ccc(C)cc3)no2)cc1Cl	4.9	4.1	17%	-0.7	.	13	5	9
Cc1ccc2[nH]c(-c3ccccc3)c(CN3CCOCC3)c(=O)c2c1	-12	-0.5	2%	-0.9	.	-4	-3	-23
CCNC(=S)N(CCc1c(C)[nH]c2ccc(C)cc12)Cc1cccnc1	-0.2	-7.6	-4%	-0.2	8.9	.	-2	24
O=C(O)c1nn(CC(=O)N2CCN(c3ncc(C(F)(F)F)cc3Cl)CC2)c(=O)c2ccccc12	-2.3	-2.3	.	-0.6	-0.2	3	0	15
FC(F)(F)c1cccc(Cc2noc(CN3CCCCC3c3ccccn3)n2)c1 (stereo not given)	-2.7	-1.0	-1%	0.2	-2.0	9	6	6
CC(=O)c1ccc(S(=O)(=O)NC2CC(=O)N(c3ccc(Cl)cc3)C2)cc1 (stereo not given)	0.3	-2.0	0%	0.2	0.2	-4	7	-2
CC(Sc1nncn1C)C(=O)NCCC1=CCCCC1 (stereo not given)	0.0	.	-12%	-0.4	-1.6	.	2	.
COc1cc(C(=O)OCc2ccc(C)cc2)cc(NC(=O)c2cccs2)c1OC	1.5	1.0	-8%	0.4	-3.2	5	-8	-5
O=C(CSCc1cccc(Cl)c1)N/N=C/c1ccc(OCC(=O)N2CCCCC2)cc1	-3.2	-0.9	1%	0.4	.	11	.	24
Cc1ccc(-n2c(C)nnc2SCC(=O)N2CCOCC2)cc1	-0.3	5.9	.	-0.4	-7.0	-2	-9	-13
CN(C)S(=O)(=O)c1ccc(NC=O)cc1	7.2	-1.1	.	0.4	-0.1	-4	-5	-7
CC(=O)Nc1nc(C)c(Oc2ccc(Cl)cc2Cl)c(=O)[nH]1	-3.6	-4.4	3%	0.2	.	-5	-8	-9
Cc1cc(C)n(CCNC(=O)CC2C(=O)NCCN2Cc2ccccc2C(F)(F)F)n1 (stereo not given)	-29	1.5	17%	-4.6	-2.1	10	-5	-1
Cc1c(NS(=O)(=O)c2cccc(C(=O)N3CCC(C)CC3)c2)c(=O)n(-c2ccccc2)n1C	6.0	.	-1%	1.7	1.0	.	-16	.
COc1ccc2c(c1)C(c1ccc(C)o1)=NNC(c1cccnc1)=N2	-0.1	21*	-5%	1.4	6.5	32	-2	2
CC(C)C(=O)Nc1nnc(SCc2cccc(F)c2)s1	0.6	-0.2	3%	-0.6	-1.3	-21	-1	19
CN(Cc1ccon1)Cc1cn(C)nc1-c1ccc2c(c1)OCCO2	5.2	-2.2	?	0.5	-0.7	21	.	1
Cc1ccnc(N2CCCC(C(=O)Nc3cccc(C)c3C)C2)n1 (stereo not given)	0.6	1.4	.	1.6	-0.8	34	3	-10
C=CCOC(=O)C1=C(C)NC(=O)NC1c1cc2c(cc1Br)OCO2 (stereo not given)	-8.5	-2.2	.	0.9	-11	0	0	3
Cc1ccc(N2C(=O)CC(Sc3ncccc3C(=O)O)C2=O)cc1 (stereo not given)	1.6	4.6	19%	0.3	-1.3	10	-6	-10
CCOc1ccccc1NC(=O)/C(C#N)=C/c1cccnc1	-0.7	0.4	.	-0.2	-1.5	31	-11	-7
CNC(=O)COC(=O)c1ccc(NC(=O)CC#N)cc1	-1.9	-4.6	22%	0.6	.	3	7	-12
CC1(C)CC(=O)C2=C(C1)N(Cc1ccco1)C(=O)C2(NC(=O)c1cccnc1)C(F)(F)F (stereo not given)	-8.3	-1.5	-1%&1%	-0.2	.	21	1	-9
COc1cccc(NC(=O)CN2CCN(C(=O)c3ccco3)CC2)c1	3.4	5.0	.	0.3	-0.5	3	-4	2
CCn1c(CNC(=O)COC)nc2ccccc21	0.3	-4.1	-1%	1.2	-11	-5	-1	-16
CC(C)OCCCNC(=O)c1cc(S(=O)(=O)N2CCCCC2)c[nH]1	-5.0	?	.	0.7	5.8	3	-3	5
Cc1ccc(OCc2nnc(SCC(=O)c3ccccc3)n2-c2ccccc2)cc1	-0.7	?	-1%	0.6	.	13	2	17
O=C(c1ccc([N+](=O)[O-])cc1)N1CCC(n2nnc3cc(F)ccc32)CC1	3.7	-0.2	-1%	0.7	-2.0	24	-1	0
O=C(CN1C(=O)NC2(CCCCCC2)C1=O)NCc1cccs1	4.0	-1.8	-5%	-0.3	2.3	-9	-4	-4
Cc1cc(C)c(C(N)=O)c(Nc2ccc3c(c2)OCCO3)n1	4.6	-4.0	25%	-0.2	.	-1	-5	-4
CC(C)=CCC/C(C)=C/C(N)=O	-48	-2.0	4%	-0.3	0.3	2	-5	-14
COc1ccc(OC)c(C(C)NC(=O)Nc2ccccc2)c1 (stereo not given)	-2.3	3.1	-4%	0.5	-19	-13	8	4
CCCOc1ccc(C(=O)CCC(=O)OCC(=O)Nc2ccc(OCC)cc2)cc1	0.4	-0.9	.	-0.5	.	10	0	-13
O=C1OC/C(=C(/O)c2ccc(Cl)cc2)C1=O	7.1	-3.9	-8%	0.5	-7.0	2	.	-8
CCOC(=O)C1CCN(C(=O)C2(NC(=O)NC3CCCCC3)CCCCC2)CC1	-2.4	-1.4	1%	0.3	0.5	-18	-3	-19
Cc1ccc(C)c(NC(=O)CSc2nnc(CNC(=O)c3cccs3)o2)c1	5.2	7.3	-5%	0.6	-7.7	12	-11	-8
COc1cc(C(=O)N(Cc2cc3cc(C)ccc3[nH]c2=O)CC2CCCO2)cc(OC)c1OC (stereo not given)	-3.7	-3.5	-3%	-0.7	.	6	2	-6
CCOC(=O)Cn1nc(/C=C/c2ccc(OC)cc2)ccc1=O	-4.9	-2.2	2%	0.0	.	-7	1	-1
C/C=C(/C)C(=O)O[C@@H]1c2c(ccc3ccc(=O)oc23)O[C@@H]1C(C)(C)OC(=O)/C(C)=C\C	-1.4	-1.3	1%	0.0	-5.6	-4	7	15
O=S(=O)(c1ccc(-c2nnc(SCc3ccccc3)o2)cc1)N1CCCC1	3.2	-0.2	-7%	-0.8	.	0	8	10
Cc1ccc(C)c(CNS(=O)(=O)c2c(C)[nH]c(C)c2C(=O)N2CCCCC2)c1	-1.1	1.9	0%	0.9	2.1	1	2	3
COCCN(Cc1cc2ccccc2[nH]c1=O)C(=O)c1ccccc1OC	-11	0.8	>100µM*	0.9	.	-7	-7	3
O=C(CCc1c[nH]c2ccccc12)NC1CC1	1.5	-1.5	69%	1.0	.	3	-4	-10
COc1ccc(C(=O)NNC(=O)C(Cc2ccc(O)cc2)NC(=O)c2ccccc2NC(=O)c2ccc(OC)cc2)cc1 (stereo not given)	-0.6	2.0	-27%	-0.1	.	-2	3	-8
CCOC(=O)c1cc2c(s1)-c1ccccc1CC2	-0.4	1.4	-7%	-0.5	.	-11	.	12
CCc1nnc(NC(=O)CSc2nnc(-c3cc4ccccc4cc3O)n2CC)s1	1.6	-1.7	21%	0.5	.	?	-4	1
Cc1ccc(N2C(=O)N(C(C)C)C(C)(C)CC2(C)O)cc1 (stereo not given)	2.6	-0.7	.	0.7	-4.2	-6	.	0
Cc1ccc(OCc2nnc(SCc3cc(=O)[nH]c4ccccc34)o2)cc1	-0.6	3.3	-10%	0.5	.	23	1	-1
Cc1ccc(/C=N/N(C)S(=O)(=O)c2ccc(C)cc2)cc1	1.8	1.0	-4%	0.6	-1.4	-4	.	18
Brc1ccccc1/C=N/Nc1nc2ccccc2o1	0.8	-0.9	.	-4.5	-0.2	-1	-5	-1
C[C@@H]1CN(C(=O)c2nc3ccc(Cl)cn3c2CNCC[C@@H]2C[C@@H]3C=C[C@H]2C3)C[C@H](C)O1	5.4	-1.5	-4%	-0.9	3.3	-20	5	4
CCOC(=O)c1cc(-c2ccccc2)n[nH]1	-0.6	-1.3	-5%	1.4	-0.1	3	-1	-4
Cc1nc(NC(=O)/C=C/c2ccco2)sc1C	-0.8	-4.3	28%	-0.3	-3.4	-3	-6	-40
Cc1csc(NC(=S)NC(=O)c2ccccc2)n1	4.1	-1.7	.	-2.4	-5.0	-14	2	-25
COc1cccc(CNC(=O)C2=Cc3cccc(OC)c3OC2)c1	-5.0	3.3	.	-1.1	-8.5	33	-3	-13
Next entries:
SMILES	LANA-H2A inh	RanGTP-Imp inh	Vif TR-FRET	Bfl-1 A1 inh	AF4-AF9 inh	Calb FLC	Beta apoptosis	T cruzi repl
Cc1cc(C)cc(-n2ncc3c2CCCC3NC(=O)CN2CCCC2=O)c1 (stereo not given)	-0.1	3.0	.	-0.8	1.2	2	.	-15
Cc1ccc(C(=O)NC2CCN(S(=O)(=O)c3ccc(F)cc3)CC2)cc1	4.7	2.0	.	-1.0	-4.4	-2	-5	-4
CCOC(=O)C1CCN(C(=O)c2cccnc2Oc2ccccc2)CC1	-3.9	2.1	9%	0.3	3.2	-4	-5	9
CCCCCOCC(O)CCC(=O)NN (stereo not given)	1.7	-2.5	10%	-0.4	.	6	-2	-11
O=[N+]([O-])c1ccc(C2Nc3cccc4cccc(c34)N2)cc1	i	6.0	.	-0.2	.	0	2	-5
COc1cc(C(=O)Oc2ccccc2/C=N/NC(=O)c2ccc(C)c(Cl)c2)cc(OC)c1OC	-1.8	1.6	-10%	0.4	.	-14	93*	55*
COc1ccc(NC(=O)CSc2nc3ccccc3c(=O)n2CCC(=O)N2CCCCC2)cc1	2.1	1.2	-7%	-0.4	.	-27	-6	14
Cc1ccc(N2C(N)=NC(N)=NC23CCCC3)c(C)c1	-4.6	-1.6	-6%	1.0	.	-5	-10	8
C=CCc1cc(C=O)cc(OC)c1OCc1c(Cl)cccc1Cl	5.7	1.2	?	1.1	.	9	-2	-7
COCCn1c(-c2cccc([N+](=O)[O-])c2)nc2c1c(=O)[nH]c(=O)n2Cc1ccccc1	0.4	-1.2	-3%	-0.3	.	10	-16	15
C=CCOc1ccc(/C=C2\SC(=S)N(C(C(=O)O)c3ccccc3)C2=O)cc1 (stereo not given)	.	-2.5	22%	.	-1.3	10	.	-10
c1ccc(N2CCN(Cc3nc4ccccc4[nH]3)CC2)nc1	4.7	1.0	.	0.8	-0.2	4	-4	-3
Cc1cc(C(=O)Cn2nc(C(=O)O)c3ccccc3c2=O)c(C)n1-c1ccccc1	-0.2	0.8	-2%	-0.6	-3.2	-5	-5	-5
